Bioassay records (PubChem)
VDR inh: vitamin D3 receptor (human) inhibition; P11473; VDR-SRC2-3 peptide fluorescence polarization, 2 h; Potency, µM, without a hit: max response, negative = inhibition, most hits filed as inhibitors; 400,000 tested, 0.93% active; AID 504847; active = well fitted inhibition curve with a large enough effect; inconclusive = small, poorly fitted or top-dose-only effect, or another doubt; inactive = no such curve, though single readings can be large or run the other way; also: series mostly up to about 120 µM
Target sequence (P11473 whole entry, looked up): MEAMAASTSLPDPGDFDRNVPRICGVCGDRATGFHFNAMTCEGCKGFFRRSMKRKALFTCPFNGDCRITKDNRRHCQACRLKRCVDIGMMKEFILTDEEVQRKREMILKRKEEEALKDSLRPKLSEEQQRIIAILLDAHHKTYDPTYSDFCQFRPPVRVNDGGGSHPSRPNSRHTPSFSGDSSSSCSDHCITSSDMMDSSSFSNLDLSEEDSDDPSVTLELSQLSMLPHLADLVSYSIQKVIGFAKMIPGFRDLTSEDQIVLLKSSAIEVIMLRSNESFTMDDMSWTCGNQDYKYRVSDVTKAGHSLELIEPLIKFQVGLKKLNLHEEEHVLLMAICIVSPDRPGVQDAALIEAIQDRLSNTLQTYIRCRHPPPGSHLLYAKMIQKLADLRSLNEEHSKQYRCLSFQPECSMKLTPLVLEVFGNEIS
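VDR–SRC2-3 interaction, FP format. Cmpds 23 nl via pintool, brief spin, 2 h ambient incubation.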
An asterisk follows results filed as active; ? = inconclusive; & = joins results of further samples. % is scaled to controls: 0 for no effect and ±100 for the full control effect; potency is read from the fitted curve at half-maximal effect. These rows are one share of the data; the hit share may differ from the screen's.

no. | mol | VDR inh
1 | O=C(CCN1CCN(c2ccccc2)CC1)NNC(=O)Cc1ccc(Br)cc1 | -1%
2 | Cc1c(Br)c([N+](=O)[O-])nn1CC(=O)Nc1ccccn1 | -8%
3 | COCCN(C(=S)Nc1ccc(C)cc1)C(C)c1cccnc1 (centres undefined) | -10%
4 | Cc1ccc(C(=O)Nc2ccc3c(c2)OCO3)cc1 | -5%
5 | Cc1ccc(NC(=S)c2ccccc2)cc1 | -3%
6 | CCCCOc1ccc(C(=O)NCCc2csc(-c3cccc(F)c3)n2)cc1 | 9%
7 | COc1ccccc1N1C(=N)S/C(=C\c2ccc(-c3ccccc3C(=O)O)o2)C1=O | -16%
8 | CCOC(=O)CSc1nc(-c2ccc(OC)cc2)ns1 | -8%
9 | CC(C)C(=O)N(Cc1ccccc1)S(=O)(=O)c1ccc2c(c1)oc(=O)n2C | -15%&-4%
10 | CC(C)(C)n1nnnc1C(c1ccc(Cl)cc1)N1CCSCC1 (centres undefined) | -12%
11 | O=C(Cn1ccn(-c2cccc(Cl)c2)c(=O)c1=O)NCCc1ccccc1 | -10%
12 | O=C(COc1ccccc1F)N1c2ccccc2CCc2ccccc21 | 1%
13 | O=C(O)c1ccc(Cl)c(S(=O)(=O)Nc2ccccc2N2CCOCC2)c1 | 4%
14 | O=[N+]([O-])c1ccccc1S(=O)(=O)NCc1ccc(F)cc1 | -2%
15 | O=C(c1cc2nc(-c3ccco3)cc(C(F)(F)F)n2n1)N1CCN(Cc2ccccc2)CC1 | 4%
16 | CC(NCC(=O)Nc1ccccc1C(=O)NC1CC1)c1ccc(F)cc1F (centres undefined) | -23%
17 | O=C1N(Cc2cccnc2)C[C@@H]2C[C@@H](c3ccccc3C#Cc3ccccc3)N3CCC[C@@]123 | 2%
18 | O=C(COC(=O)c1ccc(Cl)cc1Cl)Nc1cccc(S(=O)(=O)NC2=NCCC2)c1 | 26%
19 | CN(Cc1ccccc1)C(=O)CCCn1c(=O)c2cccn2c2cccnc21 | 8%
20 | Cc1cccc(-c2nc(SCc3ccc(Br)cc3)n3[nH]c(=O)cc3n2)c1 | 12%
21 | CCCCCCCNC1=CC(=O)CC(c2ccco2)C1 (centres undefined) | -6%
22 | Cc1ccc(NC(=O)CSc2cccc[n+]2[O-])c([N+](=O)[O-])c1 | -15%
23 | Cc1c(-c2nc(N)nc(Nc3ccc(F)cc3)n2)oc2ccccc12 | 5%
24 | COc1ccc(NC(=O)CSc2nnc(CC(=O)Nc3ccc(F)cc3)n2C)cc1 | -5%
25 | Cc1ccc(-c2[nH]ncc2/C=C(\C#N)C(=O)NC2CCCCC2)cc1 | 1%
26 | C=CCOc1ccc(C2c3c(oc4ccc(C)cc4c3=O)C(=O)N2CCCN2CCOCC2)cc1 (centres undefined) | -9%
27 | O=C(Nc1ccccn1)Nc1ccccc1[N+](=O)[O-] | 4%
28 | COc1cccc(/C=C2\SC(=S)N(CCCC(=O)N3CCCCC3CCO)C2=O)c1 (centres undefined) | ?
29 | CN=C1c2cc3cc(OC)ccc3n2CCN1C | 8%
30 | COc1ccc(CNS(=O)(=O)c2c(C)[nH]c(C)c2C(=O)N2CCCCC2)cc1 | 17%
31 | COc1ccccc1N(CC(=O)NCCc1ccccc1)S(C)(=O)=O | -19%
32 | O=C(NCCCN1CCOCC1)C1CC(=O)N(CCc2ccccc2)C1 (centres undefined) | 0%
33 | O=C(C[n+]1cc(Br)cc2ccccc21)c1ccccc1 | -28%
34 | Cc1nn2c(=O)cc(CN(C)c3ccccc3)nc2s1 | 4%
35 | C=CCN1C(=NC(=O)CCC(=O)O)SC2CS(=O)(=O)CC21 (centres undefined) | -8%
36 | O=C(COC(=O)c1n[nH]c(=O)c2ccccc12)c1ccccc1 | -15%
37 | CCc1ccc(N2CC(C(=O)Nc3ccc(S(=O)(=O)Nc4nccs4)cc3)CC2=O)cc1 (centres undefined) | 0%
38 | Cc1cc(C(=O)COC(=O)c2ccc[nH]c2=O)c(C)n1C1CC1 | -13%
39 | Nc1c(NCc2ccccc2)c(=O)c1=O | 13%
40 | O=C1CCN(Cc2nc(-c3ccc(Cl)cc3)no2)CCN1 | 5%

Laid out differently: 4 of the compounds above.
(36) O=C(COC(=O)c1n[nH]c(=O)c2ccccc12)c1ccccc1
  VDR inh = -15%

(37) CCc1ccc(N2CC(C(=O)Nc3ccc(S(=O)(=O)Nc4nccs4)cc3)CC2=O)cc1 (centres undefined)
  VDR inh = 0%

(38) Cc1cc(C(=O)COC(=O)c2ccc[nH]c2=O)c(C)n1C1CC1
  VDR inh = -13%

(39) Nc1c(NCc2ccccc2)c(=O)c1=O
  VDR inh = 13%

The list goes on.
no. | mol | VDR inh
41 | O=C(CSc1nc2ccccc2c(=O)n1CCCO)NC1CC1 | 8%
42 | O=C(Nc1ccc(S(=O)(=O)Nc2ncccn2)cc1)C12CC3CC(CC(Cl)(C3)C1)C2 | 2%
43 | Cc1ccc(-c2cc(C(=O)Nc3nccs3)c3ccccc3n2)o1 | 7%
44 | CCc1ccc(NC(=O)C2(C)Cc3ccccc3C(=O)O2)cc1 (centres undefined) | 6%
45 | CCN(CCn1cccn1)C(=O)CCc1nnc(CCc2ccccc2OC)o1 | -6%
46 | Cc1ccc(OCc2nc(-c3ccccn3)no2)c(Br)c1 | 1%
47 | CCn1ccnc1CN(C)C(=O)CC1C(=O)NCCN1Cc1c(F)cccc1Cl (centres undefined) | -3%
48 | CCOc1ccc(-n2ccn3c(CC(C)CC(=O)O)nnc3c2=O)cc1 (centres undefined) | -5%
49 | O=c1c2cc([N+](=O)[O-])ccc2nc2n1CCC2 | -15%
50 | CNC(=O)CN(c1ccc(C23CC4CC(CC(C4)C2)C3)cc1)S(C)(=O)=O | 10%
51 | CC(=O)Nc1ccc(-c2cc(C(=O)O)c3c(-c4ccccc4)[nH]nc3n2)cc1 | 1%
52 | COc1ccccc1NC1=C(Cl)C(=O)OC1OC(=O)c1ccco1 (centres undefined) | 5%
53 | COc1ccc(C=NNC(=O)c2ccccc2NS(=O)(=O)c2cccs2)cc1O | -1%
54 | O=C(NCCCN1CCOCC1)C(C(=O)c1ccccc1)n1ccccc1=O (centres undefined) | 10%
55 | Cc1ccc(N2CC(NC(=O)c3ccc(S(=O)(=O)N4CCOCC4)cc3)CC2=O)cc1C (centres undefined) | 6%
56 | CC(=O)Oc1ccc(N2C(=O)[C@@H]3[C@H](C2=O)[C@H]2c4ccccc4C=NN2[C@@H]3C(C)=O)cc1 | -8%
57 | Cc1noc(C)c1C(=O)Nc1sccc1C(N)=O | 7%
58 | CCC(=O)N1c2ccc(S(=O)(=O)NCc3ccc(F)cc3)cc2CC1C (centres undefined) | 0%
59 | Cc1ccc(Sc2nnc(Cc3ccccc3)c3ccccc23)cc1 | -26%
60 | C=CCn1c(O)c(N=NC(=O)CNC(=O)c2ccco2)c2ccccc21 | -9%
61 | COc1cc(C2OC(c3cc(OC)c(OC)c(OC)c3)C(C)C2C)cc(OC)c1OC (centres undefined) | -26%
62 | Cc1ccc(C(=O)c2cc(C)sc2N)cc1 | ?
63 | Cc1ccc(CNC(=O)Nc2cccs2)cc1 | -10%
64 | CSc1ccc(C2CC(=O)Nc3nc(SC)[nH]c(=O)c32)cc1 (centres undefined) | 3%
65 | Cc1ccc(S(=O)(=O)NCC2NCCc3ccccc32)cc1 (centres undefined) | 5%
66 | Cc1ccccc1OCc1nc2ccccc2n1Cc1ccccc1Cl | -8%
67 | CC1CN(C(=O)c2ccccc2)c2ccccc2NC1=O (centres undefined) | 2%
68 | CC(C)N(C(=O)CN1CCN(S(=O)(=O)c2ccc(Br)s2)CC1)C(C)C | -2%
69 | O=C(O)/C=C/C(=O)OC1CC2CCC1C2 (centres undefined) | -2%
70 | Cc1cccc(NC2=C(Cl)C(=O)OC2NC(=O)c2ccccc2)c1 (centres undefined) | 13%
71 | Cn1cnnc1Sc1cc(N2CCN(S(=O)(=O)c3ccc(Cl)c(Cl)c3)CC2)ccc1[N+](=O)[O-] | 1%
72 | CCOC(=O)c1cnc2[nH]c3ccccc3n2c1=O | 3%
73 | CSc1ccccc1NC(=O)CN1CC(C)OC(C)C1 (centres undefined) | -11%
74 | Cc1cc2c(=O)n(C)c(SCC(=O)c3cc4ccccc4o3)nc2s1 | 3%
75 | CC(C)OC(=O)c1nnc(-c2ccccc2)nc1OC(C)C | 18%
76 | CC1(C)Cc2c(sc3[nH]c(=O)n(CC(=O)NCC4CCCO4)c(=O)c23)CO1 (centres undefined) | 23%
77 | CN1CCN(c2ccccc2NC(=O)Cc2cn(C)c3ccccc23)CC1 | 23%
78 | CCCCn1c(CCl)nc2cc(S(=O)(=O)N3CCOCC3)ccc21 | 2%
79 | CCCCN1C(=O)Cc2c1nc(N)c1c(N)nc(N(CCC)CCC)c(C#N)c21 | ?
80 | O=C(NCCCn1ccnc1)c1noc2c1CCCC2 | -7%
81 | COCCN1CCn2c(nc3cc([N+](=O)[O-])ccc32)C1 | 3%
82 | O=C(COC(=O)Cc1cn2ccsc2n1)NCc1ccc2c(c1)OCO2 | -6%
83 | Cc1ccc(/C=N/NC(=O)c2cccnc2)o1 | 21%
84 | CCN(CC)S(=O)(=O)c1cc(NC(=O)CNc2c(C)n(C)n(-c3ccccc3)c2=O)ccc1C | -2%
85 | O=C(COC(=O)Cn1cnc2ccccc2c1=O)NCc1ccccc1Cl | -19%
86 | NC(=O)c1cc(-c2ccccc2)nc2ccc(Br)cc12 | -13%
87 | CCOC(=O)n1n[n+]([O-])c2ccccc21 | -5%
88 | O=C(CSc1cccc[n+]1[O-])Nc1ccccc1Oc1ccccc1 | ?
89 | CC(=O)Nc1ccc(NC(=O)CCc2c(C)nc3c(c(C)nn3-c3ccc(C)cc3)c2C)cc1 | -1%
90 | CCc1ccc(Nc2cc(C(=O)NCCCN(C)c3ccccc3)c3ccccc3n2)cc1 | ?

(next part)
no. | mol | VDR inh
91 | Cc1cccc(C)c1NC(=S)N(Cc1ccccc1)Cc1cccs1 | 4%
92 | CCN(C[C@H]1N[C@@](CC)(C(=O)OC)[C@H]2C(=O)N(C)C(=O)[C@@H]12)S(=O)(=O)c1ccc(OC(F)(F)F)cc1 | 6%
93 | Cc1ccc(CNC(=O)Cn2c(SCC(=O)Nc3ccc(F)cc3)nc3ccccc32)cc1 | -6%
94 | CCc1ccc(CN(C)C(=O)c2cc(COc3c(F)cccc3F)on2)cc1 | -27%
95 | COc1ccc2nc3sc(C(=O)N4CCN(C)CC4)cc3cc2c1 | -4%
96 | O=C(NC(=S)N(CCCCO)C1CCCCC1)c1sc2ccccc2c1Cl | -30%
97 | CC1CCN(S(=O)(=O)c2ccc3c(c2)N(CC(=O)NCc2cccnc2)C(=O)CS3)CC1 | ?
98 | CC1CC(C)CN(C(=O)Cn2c(=O)c3cccn3c3cccnc32)C1 (centres undefined) | 8%
99 | O=S(=O)(Nc1ccc(Cl)c(Cl)c1)N1CCOCC1 | -11%
100 | NC(=O)c1ccsc1NC(=O)COC(=O)CSc1ccc(Cl)cc1 | -16%
101 | Cc1ccc(SCc2nn(C)c(Cl)c2C=O)cc1 | 5%
102 | O=C(N/N=C/c1ccccc1C(=O)O)C(=O)N1CCCCC1 | -15%
103 | COc1cccc(NC(=O)C2CCN(c3nnc(C)c4c(C)n(-c5ccccc5)nc34)CC2)c1 | 0%
104 | Cc1ccc(NS(=O)(=O)c2cc3c(cc2C)NC(=O)CO3)cc1 | -12%
105 | CCCCOc1ccc(S(=O)(=O)N2CCN(c3ccccc3OCC)CC2)cc1 | -3%
106 | CC(O)c1ccc2c(c1)OCCOCCN(C)CCOCCO2 (centres undefined) | -6%
107 | O=C(CSc1nc(-c2ccccc2Cl)ns1)Nc1ccc2c(c1)OCO2 | 13%
108 | CCOc1ccccc1Nc1ncccc1C(=O)O | 1%
109 | COc1ccc(CN(CC(=O)NCc2ccc(F)cc2)C(=O)c2ccco2)cc1 | 8%
110 | CC(C)OCc1ccc(C(=O)N2CCN(S(=O)(=O)c3ccc(Br)s3)CC2)cc1 | 3%
111 | COc1ccc(C)cc1NC(=O)C1CCCN(S(=O)(=O)c2cccnc2)C1 (centres undefined) | 1%
112 | Cc1ccc(NC(=O)c2sc3ccccc3c2Cl)nc1 | 7%
113 | O=S(=O)(NC1CCCCCCC1)c1ccc(F)cc1 | -2%
114 | CC1C(=O)N2CCCc3cc(S(=O)(=O)N4CCN(c5ccc(F)cc5)CC4)cc1c32 (centres undefined) | -16%
115 | CCc1ccccc1NC(=O)C1CCN(C(=O)N2CCOc3ccccc32)CC1 | -1%
116 | O=c1cc(-c2ccc(O)cc2)oc2cccc(O)c12 | -5%
117 | O=C(CSc1nnc(-c2ccc3c(c2)OCO3)o1)Nc1ncc(Cl)cc1Cl | ?
118 | CCOC(=O)c1ccc(NC(=O)Cn2c(=O)cc(C(F)(F)F)c3c(C)nn(C)c32)cc1 | 5%
119 | CC(Oc1ccccc1)C(=O)NNC(=O)c1cccs1 (centres undefined) | 8%
120 | COCCNC(=O)CCCn1c(=O)c2cc(OC)c(OC)cc2n(CC(=O)Nc2ccccc2OC)c1=O | 12%
121 | O=C(COC(=O)CCCOc1ccc(Cl)cc1Cl)NCc1ccc(F)cc1 | -21%

Exported field by field: 3 of the compounds above
112) Cc1ccc(NC(=O)c2sc3ccccc3c2Cl)nc1
  VDR inh = 7%

113) O=S(=O)(NC1CCCCCCC1)c1ccc(F)cc1
  VDR inh = -2%

114) CC1C(=O)N2CCCc3cc(S(=O)(=O)N4CCN(c5ccc(F)cc5)CC4)cc1c32 (centres undefined)
  VDR inh = -16%
